Bioassay records as filed in PubChem.
NPYLR7 agonist = mosquito NPYLR7 agonism; HEK293T NPYLR7/Galpha15, GCaMP6s calcium fluorescence; AID 1259423; actives 0.15% (n = 270,000); activation, % at 10 µM; in the data active = activation above about 40%;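 also: 0% = vehicle and 100% = reference agonist at the receptor; some compounds past the cut are filed as inactive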
NPYLR7 agonist max-min = also measured in NPYLR7 agonist; calls as there; activation, %; measured here: Max-Min RFU normalised activation; some inactives read as strong as hits;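 span of the calcium signal over five minutes; 0% = vehicle and 100% = native peptide agonist; compound fluorescence can raise it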
* marks the source's active call; other numbers are inactive results; & = joins results of further samples.

SMILES	NPYLR7 agonist	NPYLR7 agonist max-min
O=C(N[C@@H]1CCCCC1NC(=O)C1CCN(C(=O)c2cc(Cl)cc(Cl)c2)CC1)c1ccccc1 (some centres not stated)	8.9	7.3
O=S1(=O)c2cccc3cccc(c23)N1Cc1cccc(Br)c1	2.9	6.1
Cc1cc(C(C)NC(=O)c2cccnc2NC2CCCC2)c(C)o1 (configuration not stated)	5.7	1.3
Cc1ccc(Cc2nc(N3CCCN(C(=O)c4cccc([N+](=O)[O-])c4)CC3)c3c(-c4cccnc4)noc3n2)cc1	-2.5	-6.2
O=C1OCC(c2ccccc2)=C1c1ccccc1	-3.1	9.8
O=c1cc(Cn2ccnc2)c2cc(O)ccc2o1	5.5	7.1
COC(=O)C(Cc1ccccc1)NC(=O)c1ccc2nc(-c3ccccc3)c(-c3ccccc3)nc2c1 (configuration not stated)	-6.4	-14.0
Cc1nonc1CN(C)S(=O)(=O)NCc1ccccc1	3.7	2.3
COCCN(CC(=O)N(CCc1ccccc1)Cc1ccc(C)o1)Cc1ccc(C#N)cc1	15.7	20.4
Cc1cccn2c(CN3CC=CC3CO)c(C(=O)N(C)CCc3ccccc3)nc12 (configuration not stated)	14.2	2.9
Cc1nc(-c2cccc(F)c2)nc(N2CCN(C(=O)C(C)Cl)CC2)c1Cc1ccccc1 (configuration not stated)	16.5	22.8
Cn1c(=O)c2c(nc(N3CCN(Cc4ccccc4)CC3)n2CCSc2ncccn2)n(C)c1=O	-17.1	-14.9
CCc1ccc(C2c3[nH]c4ccccc4c3CCN2C(=O)CSC)cc1 (configuration not stated)	8.3	-3.4
CCCCCn1c(=NC(=O)c2ccco2)c(C#N)cc2c(=O)n3ccccc3nc21	8.9	12.2
O=C(Cn1ncc2c1-c1ccoc1CC2)N1CCCCCC1	2.0	1.2
CCC(CC)n1nc(C)cc1NC(=O)CN1CCOC1=O	0.5	-1.2
Cc1cccc(OC(F)F)c1NC(=O)C1(C)CCN1C(=O)C1(c2ccccc2)CCCC1 (configuration not stated)	14.0	17.1
O=[N+]([O-])c1cc2c(cc1C=NNc1nc3ccccc3s1)OCO2	6.6	5.0
CC(=O)NC1(C(=O)N(C)CCc2ccccn2)CCC(C)CC1 (configuration not stated)	8.2	3.4
CC1(C)Cc2c(c(N3CCCC3)nc3sc4c(NCCN5CCOCC5)ncnc4c23)CO1	-3.9	-3.8
NC(=O)c1c(NC(=O)CN2CCN(C(=O)c3ccco3)CC2)sc2c1CCC2	1.6	14.8
COc1ccc(-n2nc(-c3ccccc3)cc2C(=O)O)cc1	4.9	16.1
CCOC(=O)C1CCN(C(=O)c2cc(-c3cccc(OC)c3)n3nc(C(C)(C)C)cc3n2)CC1	17.9	12.1
Cc1ccc(NS(=O)(=O)c2ccsc2C(=O)N2CCCC2)cc1	-0.6&2.8	-1.5&1.1
Cc1cc(-c2c(-c3ccccc3)ncn2CCc2ccc(O)cc2)n[nH]1	-2.9	-7.7

Entries shown so far that contain a Cl atom, in the order listed:
SMILES	NPYLR7 agonist	NPYLR7 agonist max-min
O=C(N[C@@H]1CCCCC1NC(=O)C1CCN(C(=O)c2cc(Cl)cc(Cl)c2)CC1)c1ccccc1 (some centres not stated)	8.9	7.3
Cc1nc(-c2cccc(F)c2)nc(N2CCN(C(=O)C(C)Cl)CC2)c1Cc1ccccc1 (configuration not stated)	16.5	22.8

Going on with the list.
SMILES	NPYLR7 agonist	NPYLR7 agonist max-min
Cc1nc(-c2nccc(-c3cc(C(=O)O)ccn3)n2)cs1	3.2	53.6
CCOc1cc(C(=O)Nc2nncs2)cc(OCC)c1OCC	-7.3	-5.0
O=C(NCCc1cccc(Cl)c1)c1ccc(-c2ccc(F)c(F)c2)s1	3.6	1.5
COc1cccc(Cc2nsc(N(CCC(=O)NCc3ccccc3)C(C)C)n2)c1	1.2	1.2
CCS(=O)(=O)Oc1ccc(CN(CC(C)C)C(=O)c2cc(Cl)cc(Cl)c2)cc1	-10.2	-11.8
Cc1cc(C)c(NC(=O)NC2CCCS(=O)(=O)C2)c(C)c1 (configuration not stated)	17.8	9.8
CN(CCc1ccccn1)c1ncccc1CNC(=O)C1COC(=O)N1 (configuration not stated)	1.5	2.4
Cc1cc(C(C)(C)C)ccc1OCC(=O)N=Nc1c(O)n(C)c2c(C)cccc12	-7.2	-13.5
CCOc1ccc(NC(=O)N(Cc2cccc(OS(=O)(=O)c3cccc(C(F)(F)F)c3)c2)CC(C)C)cc1	-2.9	8.1
Cc1ccccc1NC(=O)N1CCC(n2cc(Cc3ccccc3)nn2)CC1	-1.9	-3.7
CC1(C(=O)Nc2cnc3ccccc3c2)CCN1C(=O)c1ccccc1CCc1ccccc1 (configuration not stated)	-1.7	-1.8
CC(=O)Nc1ccc(SCc2cccnc2)nn1	3.1	4.0
Cc1ccccc1SCC(=O)Nc1nc2ccc(S(C)(=O)=O)cc2s1	4.8	7.5
Fc1cccc(C2=NC3(CCCC3)NC2=S)c1	17.7	6.3
O=C(C1CCN(S(=O)(=O)c2cccs2)CC1)N(Cc1ccccn1)c1nc2ccccc2s1	3.4	0.7
COc1cccc(CC2(CO)CCNCC2)c1	1.8	-0.9
CCCCC(=O)N1CCN(c2nc(C)cc(Nc3ccc(C)cc3)n2)CC1	6.5	4.6
O=C(CCn1cnc(-c2ccccc2)c1-c1ccccc1)NN=Cc1c[nH]c2ccccc12	0.7	4.3
CCCCN1CCCC2(CCNCC2)CC1	5.0	2.2
O=C(CCc1cc2c(n1-c1ccc3c(c1)OCO3)-c1ccccc1CC2)NCCCN1CCCC1=O	0.1	-4.3
CN(C(=O)c1cc(CN2CCOCC2)on1)C1CCS(=O)(=O)C1 (configuration not stated)	3.8	2.0
COc1cccc(NC(=O)CN2CN(c3ccccc3)C3(CCN(C(=O)/C=C/c4ccccc4)CC3)C2=O)c1	-1.8	-2.4
CNc1nc(=S)[nH]c2ccccc12	-1.8	-3.9
CCC(C(=O)Nc1ccc(N2CCCCC2)c(C(=O)NCC2CCCO2)c1)c1ccccc1 (configuration not stated)	-7.4	-14.7
Cc1cc(C)cc(OCc2nc(C(=O)NCCN3CCOCC3)cs2)c1	1.7	-5.8

Other entries.
SMILES	NPYLR7 agonist	NPYLR7 agonist max-min
CC(C(=O)NC(C)(C)C)S(=O)(=O)c1nc(-c2ccccc2)cs1 (configuration not stated)	10.9	6.7
CCC(C(=O)N1CCC[C@@H]1C(=O)NC1CCC(NC(=O)c2ccc(OC)cc2)CC1)c1ccccc1 (some centres not stated)	-2.0	4.2
CC1(NC(=O)Cc2csc3nc(-c4ccc(F)cc4)cn23)CCS(=O)(=O)C1 (configuration not stated)	6.7	4.3
CC(NC(=O)COC(=O)c1cccnc1N1CCCC1)c1ccccc1 (configuration not stated)	2.4	4.1
O=C(NC1CC(=O)N(Cc2cccc(F)c2)C1)c1c(Cl)cccc1Cl (configuration not stated)	-3.8	-5.9
O=C(c1cccc2ccccc12)C1CCCN(C(=O)CCC(F)(F)F)C1 (configuration not stated)	5.1	1.4
Cc1ccc(Cc2nc(N3CCCN(C(=O)Nc4ccc(Cl)cc4Cl)CC3)c3c(-c4cccnc4)noc3n2)cc1	11.3	-0.6
COc1ccc(CN(CCc2c[nH]c3ccccc23)Cc2nc(C(=O)N3CCOCC3)co2)c(OC)c1	21.6	17.6
COc1cc(OC)cc(C(=O)NCC2CCCN(C/C=C/c3ccccc3OC)C2)c1 (configuration not stated)	0.7	-3.9
Cc1ccsc1[C@@H]1CCN(C(=O)c2ccc(-n3cnnc3)cc2)C[C@H]1O	-3.8	-3.3
COc1ccc(C2CC(=O)Nc3c2c(C(C)C)nn3C)cc1Cn1cccn1 (configuration not stated)	11.0	7.4
O=C(CN1CCN(C(=O)CN2C(=O)COc3ccccc32)CC1)Nc1ccc(F)cc1	5.8	3.4
O=C(N/N=C\C(Br)=Cc1ccccc1)c1cc(C2CC2)[nH]n1	-6.2	-10.7
CC(Oc1ccccc1C#N)C(=O)Nc1cccc(C(F)(F)F)c1 (configuration not stated)	-7.1	-8.6
COCCN(CC(=O)N(Cc1ccccc1)Cc1sccc1C)C(=O)c1cccc(Cl)c1	22.2	19.8
Cc1cccnc1C(NC(=O)C1CCN(Cc2ccc(N(C)C)cc2)CC1)c1ccc(Cl)cc1 (configuration not stated)	11.1	0.3
O=C(O)CCC(=O)Nc1ccc(S(=O)(=O)Nc2nccs2)cc1	-2.7&-5.5	-8.4&-9.2
CCOC(=O)c1nn(-c2ccc(C)cc2)c(=O)cc1N1CCN(c2ccccc2OC)CC1	13.0	8.0
Cc1ccc(NC(C)(C)C(=O)N[C@H]2C[C@H]3C(=O)NCC(=O)N3C2)cc1	-2.3	-4.1
CN(Cc1ccc(Cl)c(Cl)c1)Cc1ncc(C(C)(C)C)o1	-0.2	-0.9
C=CCN1C[C@H]2CN(C)c3ccccc3[C@@H]2N(C(=O)Cc2ccccc2)CCC1=O	1.4	4.5
Cc1nc(Cc2ccccc2)sc1C(=O)n1ncc(C#N)c1N	7.1	4.4
N#CC1C(=N)Oc2c(oc(CO)cc2=O)C12C(=O)N(Cc1ccccc1)c1ccccc12 (configuration not stated)	-3.8	-5.0
CCOc1ccc(C(=O)Nc2n[nH]c(S(C)(=O)=O)n2)cc1C	-1.1	-2.0
CCOc1ccccc1CN1CCN(Cc2ccn[nH]2)CC1CCO (configuration not stated)	-9.2	-9.3

The results go on:
SMILES	NPYLR7 agonist	NPYLR7 agonist max-min
O=CC1=NN(c2ccccc2)C(c2ccccc2)C1 (configuration not stated)	6.0	6.3
CC(C)(C)c1ccc(N2C(=O)/C(=C/c3ccc(-c4ccc([N+](=O)[O-])cc4)o3)C=C2c2ccccc2)cc1	-2.3	0.6
Cc1ccccc1C(NC(=O)C1(c2ccccc2F)CC1)c1ccncc1 (configuration not stated)	20.5	10.9
Cc1nc(-c2ccccc2)sc1C(=O)Nc1c(C)nc2c(C)cccn2c1=O	2.1	-0.7
C=CCOC1CCCN(C(=O)C2CCCC2)C1 (configuration not stated)	-5.7	-0.8
COc1ccc(C(=O)N=Nc2c(O)[nH]c3ccc(C)cc23)cc1	4.5	-3.6
COc1ccc(CCN2CC3=C(C2=O)C(c2ccccc2F)NC(=O)N3C)cc1OC (configuration not stated)	-2.3	6.0
CSc1ccc(C(=O)C2CCCN(C(=O)c3n[nH]c(=O)c4ccccc34)C2)cc1 (configuration not stated)	4.4	-11.5
Cc1ccc2c(C)c(C(=O)NCCSc3nncn3C)oc2c1C	7.4	3.2
Cc1ccc2c(c1)c(=O)c(-c1nc(-c3cccc(F)c3)no1)cn2C	0.6	1.0
Cc1cc(N2CCN(CCc3ccncc3)CC2)nc(-c2cccnc2)n1	-3.1	-3.8
Nc1nnc(SCC(=O)Nc2nnc(-c3ccc(Cl)cc3Cl)s2)s1	-9.9	-20.8
O=c1[nH]c2c(Br)cc(Cl)cc2o1	8.1	0.1
CCC1(c2ccc(F)cc2)NC(=O)N(CC(=O)c2cc(C)n(Cc3ccco3)c2C)C1=O (configuration not stated)	3.1	-1.2
O=c1c2cc(Br)ccc2ncn1Cc1ccc(F)cc1Cl	-1.3	-5.7
O=P(CCN1CCCCC1)(CCN1CCCCC1)c1ccccc1	-4.7	-5.1
C/C=C\COC1CCCN(C(=O)c2ccc(Cl)cc2Cl)C1 (configuration not stated)	-2.5	5.6
CCOC(=O)c1cc(-c2ccc(N3CCN(C(=O)c4ccc(Cl)nc4)CC3)cc2)n(-c2ccc(F)cc2)n1	15.8	8.1
COc1ccc2cc(C(=O)C3CCCN(CCCn4nnnc4C)C3)ccc2c1 (configuration not stated)	-4.4	-5.1
O=C(NCc1nnnn1C1CCCCC1)NC1CCCCC1	2.5	-0.2
CCN(CC)CCCC(C)NCc1nnc(-c2ccc(Cl)cc2)o1 (configuration not stated)	1.9	1.5
Cc1cccc(-n2cc(CN(C)C(=O)c3cc(C)nc(C)n3)cn2)c1	1.7	0.4
COc1ccc(OC)c(CNC(=O)c2c(N)nc3sc4c(c3c2C(F)(F)F)CCC4)c1	1.1	0.9
CC1CN(Cc2ccno2)CC(C)S1 (configuration not stated)	-1.5	-3.7
Cc1ccc(-n2nc(C(=O)NC(C)c3ccccc3)c(=O)n(Cc3ccccc3Cl)c2=O)cc1C (configuration not stated)	-3.1	9.8

Some of the entries so far, as labelled records.
> COc1ccc(CCN2CC3=C(C2=O)C(c2ccccc2F)NC(=O)N3C)cc1OC (configuration not stated)
- NPYLR7 agonist: -2.3
- NPYLR7 agonist max-min: 6.0

> CSc1ccc(C(=O)C2CCCN(C(=O)c3n[nH]c(=O)c4ccccc34)C2)cc1 (configuration not stated)
- NPYLR7 agonist: 4.4
- NPYLR7 agonist max-min: -11.5

> Cc1ccc2c(C)c(C(=O)NCCSc3nncn3C)oc2c1C
- NPYLR7 agonist: 7.4
- NPYLR7 agonist max-min: 3.2

> Cc1ccc2c(c1)c(=O)c(-c1nc(-c3cccc(F)c3)no1)cn2C
- NPYLR7 agonist: 0.6
- NPYLR7 agonist max-min: 1.0

Carrying on.
SMILES	NPYLR7 agonist	NPYLR7 agonist max-min
CCOc1ncccc1C(=O)NC1CCSc2ccc(F)cc21 (configuration not stated)	-1.0	-4.5
Cc1ccc(C)c(OCCC(=O)Nc2cccnc2)c1	1.2	-2.0
O=C(Cn1cnc2ccsc2c1=O)NCCSc1ccccc1	4.6	8.6
N#CC(=Cc1cc[nH]c1)C(N)=S	-1.2	-4.3
COC(=O)CCc1ccc(OCC(O)CNC(C)C)cc1 (configuration not stated)	-9.5	-12.9
CCCCCCCCCCCC[N+](C)(C)CCOc1ccccc1	-16.2	-23.7
CN(CC1CCCN(CCc2ccc(Cl)cc2)C1)C(=O)c1ccncc1 (configuration not stated)	3.1	3.3
Cc1ccn2c(NC(=O)CC(C)(C)C)c(-c3ccc(Cl)cc3)nc2c1	-5.9	0.0

3 compounds drawn at random from the list so far:
SMILES	NPYLR7 agonist	NPYLR7 agonist max-min
CCCCN1CCCC2(CCNCC2)CC1	5.0	2.2
Cc1cccn2c(CN3CC=CC3CO)c(C(=O)N(C)CCc3ccccc3)nc12 (configuration not stated)	14.2	2.9
Nc1nnc(SCC(=O)Nc2nnc(-c3ccc(Cl)cc3Cl)s2)s1	-9.9	-20.8

This is a subset, so the mix of outcomes need not match the whole.
